E coli growth: inhibitors of Escherichia coli growth | AID 1053175 | actives 0.21% (n = 330,000) | OD600, 23 h; hits give low values | OD600 absorbance (test concentration not listed);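 active = OD600 absorbance below the run mean of sample wells minus 3.6 SD, in any replicate, cut at about 0.56 in these data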;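 note: stock transfer was 300 nL into about 60 µL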
Ecoli rRNA inh: selective bacterial rRNA inhibition in E. coli; GFP signal change (wild-type ribosome), % (no concentration beside the values); E. coli WT GFP vs humanized-ribosome RFP mutants, fluorescence, 24 h; hits give low values; DMSO median 0, no signal -100; AID 720706; actives 1.6% (n = 350,000);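 active = significant combined selectivity score with lowered wild-type GFP, culture density cut under 30%, mutant RFP and density less affected; inactive = any of these conditions unmet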; note: one replicate is shown; some compounds called inactive have numbers as strong as hits
HNF4A DNA FP: change in binding of human HNF4 alpha to DNA | P41235 | HNF4a-FITC DNA binding, fluorescence polarization, 1 h | activity change, % at 10 µM | actives 0.3% (n = 360,000); in the data active = activity change above about 30%, passing the limit was not always enough;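 note: controls were the assay level and a saturating level of protein; the project sought stronger binding though the title names inhibitors; some compounds called inactive have numbers as strong as hits; positive values seem to mean higher polarization but the record does not say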
MLL AF4-AF9 inh: MLL-AF4/AF9 protein interaction inhibition; P42568; AlphaScreen, biotin-AF4 peptide binding to FLAG-AF9; inhibition, % at 10 µM; actives 0.47% (n = 350,000); AID 651704;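 active = every replicate reaching a set inhibition limit, whatever the replicate mean, cut at about 25% in these data; inconclusive = mean inhibition reaches that limit but some replicates miss it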;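 note: 0% = plate neutral control median and 100% = total signal loss; the record names both 10 and 1 µM as test concentration; the first replicate is given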
Target sequence (P42568 whole entry, looked up): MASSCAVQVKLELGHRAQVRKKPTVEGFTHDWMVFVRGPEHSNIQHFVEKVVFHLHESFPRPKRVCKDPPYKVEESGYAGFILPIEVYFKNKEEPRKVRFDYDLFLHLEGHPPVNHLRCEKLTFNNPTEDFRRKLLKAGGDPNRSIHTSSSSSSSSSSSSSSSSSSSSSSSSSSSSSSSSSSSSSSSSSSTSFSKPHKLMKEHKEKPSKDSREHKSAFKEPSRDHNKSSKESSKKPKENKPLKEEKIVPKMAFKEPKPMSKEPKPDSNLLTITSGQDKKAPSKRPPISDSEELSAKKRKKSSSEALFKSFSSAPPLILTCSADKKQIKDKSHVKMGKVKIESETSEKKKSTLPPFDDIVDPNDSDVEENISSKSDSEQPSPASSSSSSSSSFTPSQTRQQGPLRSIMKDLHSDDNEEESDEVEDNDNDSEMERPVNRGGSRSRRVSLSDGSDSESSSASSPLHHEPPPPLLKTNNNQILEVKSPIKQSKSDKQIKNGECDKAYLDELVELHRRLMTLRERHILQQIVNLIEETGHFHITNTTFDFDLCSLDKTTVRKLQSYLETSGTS
FGF22 binding: binders of recombinant human FGF22 by thermal shift | calls only at 9.99 µM | Q9HCT0 | AID 651658 | actives 1.5% (n = 340,000) | SYPRO orange fluorescence; percent of sucrose octasulfate shift, DMSO zero;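 active = melting point raised past a set limit in the mean and every replicate; inconclusive = no clear call; three in four hits are not shown here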
Target sequence (Q9HCT0 whole entry, looked up): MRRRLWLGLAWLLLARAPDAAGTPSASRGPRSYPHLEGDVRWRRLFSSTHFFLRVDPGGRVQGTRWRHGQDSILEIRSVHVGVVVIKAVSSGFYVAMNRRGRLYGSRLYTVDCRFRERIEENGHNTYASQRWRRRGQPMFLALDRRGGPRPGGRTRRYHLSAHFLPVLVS
ALR inh: human ALR oxidase inhibition via reduced H2O2. inhibition, % (test concentration not listed). actives 3.8% (n = 290,000). purified ALR, DTT oxidation, H2O2 HRP-luminol luminescence. P55789;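 active = mean and each replicate at 75% or more; inconclusive = only one of the two met; inactive = neither met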;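 note: stock transfer was 7.5 nL into about 7.5 µL; 0% = neutral wells and 100% = wells with inactivated enzyme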
Target sequence (P55789 whole entry, looked up): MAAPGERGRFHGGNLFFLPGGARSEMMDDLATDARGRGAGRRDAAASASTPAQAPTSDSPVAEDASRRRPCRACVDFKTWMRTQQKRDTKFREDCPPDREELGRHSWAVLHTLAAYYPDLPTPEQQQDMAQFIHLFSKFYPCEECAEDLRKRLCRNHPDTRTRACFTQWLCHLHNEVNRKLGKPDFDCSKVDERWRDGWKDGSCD
Vif A3G: inhibitors of Vif binding to APOBEC3G peptide, primary screen, biochemical, TR-FRET, GST-Vif 1-94, biotin-A3G peptide, dose response retest (AID 1117319). TR-FRET GST-Vif / biotin-A3G peptide binding; higher % means a stronger effect; test concentration not given here; strong numbers were not always called active. actives 0.57% (n = 260,000). inhibition, %, or IC50 in µM where a hit was titrated;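 active = above the screen mean plus three standard deviations and confirmed in dose response; inconclusive = results disagree or hit not tested in dose response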;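 note: Vif residues 1-94 fused to GST binding biotinylated APOBEC3G peptide 110-148; 0% = full assay without inhibitor and 100% = GST in place of GST-Vif; retest series ran down from 100 µM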
Ecoli rRNA inh OD600: recorded beside Ecoli rRNA inh, whose call it bears; OD600 change, %; measured here: OD600 growth;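 optical density of the mix in the first replicate; 0 = DMSO median and -100 = no signal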
Ecoli rRNA inh RFP: recorded beside Ecoli rRNA inh, whose call it bears; RFP signal change, %; measured here: RFP humanized mutant strains;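 first replicate; 0 = DMSO median and -100 = no signal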
An asterisk follows results filed as active; i = inactive; ? = inconclusive; . = no result given; + = active, no number; & = joins results of further samples. An excerpt; the hit share may differ from the screen's.

cpd	E coli growth	Ecoli rRNA inh	Ecoli rRNA inh OD600	Ecoli rRNA inh RFP	HNF4A DNA FP	canonical_smiles	MLL AF4-AF9 inh	FGF22 binding	ALR inh	Vif A3G
1	0.634	6.5	13.2	0.6	-2.1	COc1ccc(CN2CCNC(=O)C2CC(=O)NCCN2CCCCC2=O)c(F)c1 (centres undefined)	-0.5	i	-1.0	.
2	0.681	21.0	22.8	7.5	0.8	COc1ccc(NC(=O)Nc2nnc(-c3ccccc3F)s2)cc1	-1.5	i	-6.9	2.3%
3	0.734	-1.0	-2.7	1.3	-3.8	CCOC(=O)CC(=O)CSc1nc2ccc(OC)cc2cc1C	-0.8	.	-3.0	7.1%
4	0.734	-12.6	-9.6	-0.5	6.2	Cc1cc(C)cc(NC(=S)Nc2cccc3ccccc23)c1	-3.9	i	-16.2	-4.4%
5	0.66	.	.	.	3.1	CC(NS(C)(=O)=O)C(c1cccs1)N1CCN(c2ccccc2F)CC1 (centres undefined)	.	.	.	32.4%&-3.0%
6	.	-2.6	-2.4	0.6	.	O=C(NCC[C@@H]1CC[C@@H](NC(=O)C2CC2)[C@H](CO)O1)c1cc(Cl)cc(Cl)c1	-3.6	i	.	.
7	0.74	.	.	.	6.4	COc1nc(-c2ccccc2)ccc1-c1noc(-c2ccco2)n1	.	.	.	12.2%
8	0.592	-16.9	-16.4	-4.8	-0.9	O=C(Cn1cnc2ccccc21)c1ccc(Cl)cc1	-7.9	i	-19.7	1.3%
9	.	.	.	.	3.4	C=C1CC[C@H](O)C/C1=C/C=C1\CCC[C@]2(C)[C@@H]([C@H](C)/C=C/[C@H](C)C(C)C)CC[C@@H]12	-0.8	i	24.4	.
10	0.639	4.5	-0.3	2.3	0.4	COc1ccc(C(=O)Nc2ccccc2C(=O)Nc2cc(C)ccn2)cc1	6.5	i	-1.9	.
11	0.61	-16.4	-11.4	-2.0	2.0	O=C(CCNC(=O)c1ccco1)Nc1nc2ccccc2s1	0.4	i	.	-7.2%
12	0.668	.	.	.	-1.9	S=c1[nH]nc(-c2cc(-c3ccco3)[nH]n2)n1-c1ccccc1	.	.	62.0	4.5%
13	.	-9.5	-57.0	25.1	-4.8	CC(=O)Nc1cc(-c2ccccc2CN(C)C)cn2c(-c3ccc(F)c(Cl)c3)cnc12	16.9	i	.	.
14	.	-8.4	-32.4	4.0	.	COCC#Cc1ccc([C@H]2[C@@H](CO)N3CCCCN(S(=O)(=O)c4ccccc4C)C[C@@H]23)cc1	-3.7	i	.	.
15	.	-13.8	-42.5	24.2	.	C[C@@H]1CN([C@@H](C)CO)C(=O)c2cc(NC(=O)CCC(F)(F)F)ccc2O[C@@H]1CN(C)Cc1ccc(-c2ccccc2)cc1	5.6	i	.	.
16	0.706	5.2	8.6	1.1	6.8	Cc1cccc(NC(=O)c2ccc3c(c2)C(=O)N(Cc2cccnc2)C3=O)c1C	-9.7	i	-1.7	1.8%
17	0.667	-2.4	-12.4	1.0	3.5	CCOc1cc(OCC)c(C(C)=O)cc1OCC	.	i	8.7	.
18	0.693	5.2	0.7	0.2	-5.2	O=C(c1ccc(N2CCCC2=O)cc1)N1CCN(c2ccccc2F)CC1	0.3	i	1.7	.
19	.	1.9	12.1	0.9	.	COc1ccc2c3c([nH]c2c1)[C@H](CO)N(Cc1cccc(F)c1)CC31CN(CC2CC2)C1	23.5	i	.	.
20	0.675	.	.	.	-8.1	O=C(O)c1ccc(NS(=O)(=O)c2ccc3c(c2)C(=O)c2cc(S(=O)(=O)Nc4ccc(C(=O)O)cc4)ccc2-3)cc1	.	.	2.6	-0.1%
21	.	17.2	8.0	13.9	-2.1	CCCSc1ccc([C@H]2N[C@@](Cc3ccccc3)(C(=O)OC)[C@H]3C(=O)N(C)C(=O)[C@@H]23)cc1	5.4	i	4.4	.
22	0.618	.	.	.	3.6	O=C(C[n+]1cc(-c2ccc(Cl)cc2)n2c1CCC2)N1c2ccccc2Sc2ccccc21	.	.	-104.5	.
23	0.692	-9.6	-18.9	-0.9	-1.7	CCC(C(=O)OCC(=O)Nc1ccc(C)c(S(=O)(=O)N2CCOCC2)c1)c1ccccc1 (centres undefined)	1.9	i	2.8	2.8%
24	0.646	.	.	.	-0.3	S=C1NCCOCCNC(=S)NCCOCCOCCOCCN1	.	.	-0.5	6.6%
25	0.682	5.4	9.2	-3.8	-0.5	Cc1ccccc1NC(=O)CCN1CCN(CCO)CC1	-0.3	i	-3.7	.
26	.	0.2	8.4	0.3	.	COCC(=O)N1C[C@H](C)[C@@H](OC)CN(C)C(=O)c2ccc(NC(=O)c3cnccn3)cc2OC[C@@H]1C	-1.8	i	.	.
27	.	-1.3	-3.7	-2.9	0.9	O=c1[nH][nH]c2c1[C@H](c1ccccc1)O[C@H](C1CCCCC1)C2	-1.3	i	.	.
28	0.697	.	.	.	4.2	Cc1ccc(N(CC(O)CN2CCOCC2)S(=O)(=O)c2ccc3ccccc3c2)cc1 (centres undefined)	.	.	.	2.6%
29	.	9.5	6.4	-1.5	-2.2	CCN(CC)S(=O)(=O)c1cccc(C(=O)N/N=C/c2ccc(OC)c(O)c2)c1	4.4	i	96.6*	.
30	0.702	.	.	.	0.7	Cc1cc(C)nc(SCc2ccccc2C#N)n1	.	.	-1.0	20.0%
31	0.726	.	.	.	2.3	CCOC(=O)CN(C(=O)CSc1nnc(CNc2ccc(F)cc2)n1CC)c1ccc(F)cc1	.	.	21.1	-1.8%
32	0.692	0.2	-5.7	-0.7	-2.8	Cc1onc(-c2ccccc2Cl)c1C(=O)N1CCCCC1C (centres undefined)	-3.6	i	6.9	.
33	0.701	14.2	11.6	-2.5	3.5	N/C(=N\c1nc2ccccc2o1)NC(=O)c1ccc(Cl)cc1	1.9	i	-2.0	6.1%
34	0.679	-16.4	-20.4	-1.8	-0.6	CC(C)c1[nH]nc2c1C(C1C=CCCC1)C(C#N)=C(N)O2 (centres undefined)	0.7	i	-25.0	.
35	0.66	4.8	13.4	0.2	2.2	CCOc1ccc(-n2c(-c3ccccc3)nnc2-c2ccccc2)cc1	.	.	0.4	-0.3%
36	.	8.0	1.8	-3.1	7.3	CCC(CC)C(C(=O)NCc1ccccc1)N1CCN(C(=O)C2CCCO2)CC1 (centres undefined)	.	i	.	.
37	0.7	.	.	.	-0.6	CCOc1ccc(-n2cc(C(=O)Nc3ccc(Cl)cn3)c3cc(OC)c(OC)cc3c2=O)cc1	.	.	.	30.3%
38	0.607	-36.2	-66.8	2.0	1.1	Oc1ccc(-c2cccc(-c3ccc(O)cc3)c2)cc1	4.2	i	42.5	.
39	0.78	-18.1	-15.7	1.4	5.2	COc1cc(C(=O)NNc2nc3cc4c(cc3s2)OCO4)cc(OC)c1OC	-0.5	i	99.2*	10.7%
40	0.682	-4.0	-2.6	-2.5	-0.1	Cc1cccc(OCc2n[nH]c(=S)o2)c1C	-3.8	i	23.2	3.0%
41	.	-3.7	-4.2	-3.5	.	C[C@H]1CN([C@@H](C)CO)C(=O)c2cc(NS(=O)(=O)c3cccs3)ccc2O[C@H]1CN(C)C(=O)Nc1ccc2c(c1)OCO2	0.5	i	.	.
42	0.688	.	.	.	2.5	COc1ccc(C(=O)NNC2CC(=O)N(Cc3ccccc3)C2=O)cc1OC (centres undefined)	.	.	.	-0.6%
43	.	-0.3	17.2	0.6	.	COc1ccc(S(=O)(=O)Nc2cccc3c2O[C@H](CN(C)CC2CC2)[C@H](C)CN([C@H](C)CO)C3=O)cc1	-14.4	i	.	.
44	0.733	.	.	.	-3.3	Cc1ccc2c(NC(=O)C3CC3)cccc2n1	.	.	1.4	4.5%
45	.	12.2	16.8	-0.6	1.9	COc1ccc(CCNC(=O)Nc2nnc([C@@H]3C[C@H](O)[C@@H](CO)O3)s2)cc1OC	2.8	i	.	.
46	.	.	.	.	-1.1	O=C(N/N=C/CCc1ccccc1)c1ccccc1	.	.	8.9	3.5%
47	0.628	-0.4	4.2	-2.5	-1.5	CCOC(=O)c1cc(CC)sc1NC(=O)c1cc(OCC)c(OCC)c(OCC)c1	2.9	i	-12.4	-8.7%
48	.	-2.9	-1.6	2.5	.	COc1ccc(NC(=O)N(C)C[C@@H]2OCCCC[C@H](C)Oc3ccc(NC(=O)Nc4ccccc4)cc3C(=O)N([C@H](C)CO)C[C@@H]2C)cc1	-2.9	i	.	.
49	.	-11.4	-2.1	-4.1	5.6	O=C(N/N=C/c1cccc(O)c1)c1ccc(NC(=O)c2cccc([N+](=O)[O-])c2)cc1	-0.3	i	.	25.4%
50	0.632	.	.	.	-3.0	S=C(NCc1ccc(Cl)cc1)NC12CC3CC(CC(C3)C1)C2	.	.	-13.8	0.5%

(next part)
cpd	E coli growth	Ecoli rRNA inh	Ecoli rRNA inh OD600	Ecoli rRNA inh RFP	HNF4A DNA FP	canonical_smiles	MLL AF4-AF9 inh	FGF22 binding	ALR inh	Vif A3G
51	0.656	9.3	13.4	-8.5	-3.2	O=C(OCC(=O)c1cccs1)c1cccc(C(=O)OCC(=O)c2cccs2)n1	1.6	+	0.8	10.7%
52	.	-30.5	-30.6	-4.0	.	CCCCNc1ccc2c(c1)OC[C@H](Cc1ccccc1)NS2(=O)=O	-0.8	i	.	.
53	0.692&0.655	.	.	.	0.9	O=C(Nc1cccc(C(F)(F)F)c1)Nc1ccc(N2CCCC2)c(S(=O)(=O)Nc2ccccc2Cl)c1	.	.	-1.6	.
54	0.688	-9.5	-15.8	1.7	5.8	CCOC(=O)C1CCN(C(=O)c2cc3cc4ccc(C)cc4nc3o2)CC1	1.5	i	5.1	-4.9%
55	.	0.3	4.0	-0.1	.	CC(C)NC(=O)Nc1ccc2c(c1)C(=O)N([C@@H](C)CO)C[C@@H](C)[C@H](CN(C)C(=O)Nc1cccc3ccccc13)OCCCC[C@@H](C)O2	0.5	i	.	.
56	0.711	-2.8	-4.7	-2.4	1.6	Cc1c(C(=O)Nc2ccccc2F)sc2ncn(CC(=O)N3CCCCC3)c(=O)c12	0.7	i	0.6	.
57	0.68	0.0	-6.4	2.5	3.1	Cc1nc(C(=O)NCc2ccccc2)sc1C1(C)CC(c2ccccc2)=NO1 (centres undefined)	-2.3	i	.	.
58	.	3.7	-0.2	3.5	.	COc1ccc(NC(=O)N(C)C[C@H]2OCCCC[C@H](C)Oc3ccc(NC(=O)c4ccccc4)cc3C(=O)N([C@@H](C)CO)C[C@H]2C)cc1	-2.9	i	.	.
59	0.741	2.8	1.9	0.5	0.3	CC(=O)N1CCN(C(=O)c2cc(S(=O)(=O)NCc3ccccc3)ccc2C)CC1	-0.3	i	0.5	.
60	0.682	27.2	23.6	4.3	-2.3	COc1ccc(C=O)cc1Cn1ccnc1C	?	i	-1.9	.

Screening results: PubChem BioAssay, several laboratories
